Screens: PubChem BioAssay, several laboratories
RecA splice inh: blocks M. tuberculosis RecA intein splicing | P9WHJ3 | cell-free RecA intein splicing, fluorescence | inhibition, %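 (about 9 µM by stock and volumes)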 | 0.75% of 290,000 active; in the data active = inhibition above about 30%; inconclusive = no clear call, values can overlap the other calls;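 note: 0% = vehicle wells and 100% = reference inhibitor control wells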
Target sequence (P9WHJ3 whole entry, looked up, canonical isoform): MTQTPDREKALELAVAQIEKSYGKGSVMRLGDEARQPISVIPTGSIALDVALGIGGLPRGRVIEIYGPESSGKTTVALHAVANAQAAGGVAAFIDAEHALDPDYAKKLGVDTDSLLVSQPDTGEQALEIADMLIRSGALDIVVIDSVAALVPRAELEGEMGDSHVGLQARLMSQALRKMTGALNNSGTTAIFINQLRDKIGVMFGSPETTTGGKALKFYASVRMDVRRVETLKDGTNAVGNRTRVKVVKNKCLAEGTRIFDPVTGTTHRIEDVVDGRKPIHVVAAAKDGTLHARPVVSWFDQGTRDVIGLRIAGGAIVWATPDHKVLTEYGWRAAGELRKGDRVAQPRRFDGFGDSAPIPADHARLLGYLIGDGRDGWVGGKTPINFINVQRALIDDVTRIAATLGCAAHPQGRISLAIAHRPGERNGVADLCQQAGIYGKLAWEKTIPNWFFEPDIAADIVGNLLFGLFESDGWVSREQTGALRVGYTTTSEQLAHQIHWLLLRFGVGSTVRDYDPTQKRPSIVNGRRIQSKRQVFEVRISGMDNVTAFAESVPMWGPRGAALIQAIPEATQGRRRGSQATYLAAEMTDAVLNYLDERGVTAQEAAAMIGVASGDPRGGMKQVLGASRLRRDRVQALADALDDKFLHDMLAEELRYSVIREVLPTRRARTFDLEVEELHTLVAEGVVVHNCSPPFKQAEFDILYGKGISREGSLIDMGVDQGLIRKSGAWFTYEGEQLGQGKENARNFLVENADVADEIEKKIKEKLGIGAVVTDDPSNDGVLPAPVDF
Mtb betalactam: beta-lactam sensitization of Mtb H37Rv; 0.27% of 330,000 active; M. tuberculosis H37Rv growth with meropenem, percent inhibition; hits of this screen are not shown here; inhibition, % at 25 µM; AID 434955;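 active = about 74% or more and at least 40 points above the plate without the antibiotic, then above 30% in a dose series; inconclusive = first-round hits that could not be retested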;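 note: growth measured after seven days incubation then overnight dye step; 0% = bacteria only wells and 100% = bacteria with antibiotic; twin plates without the antibiotic show which effects depend on it; some results filed as inactive read as strong as hits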
YopH PTP inh: YopH (Yersinia) phosphatase inhibition; fluorescence Ex485/Em525; inhibition, %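 (about 10 µM by stock and volumes)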; 0.16% of 140,000 active; AID 898;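 active = inhibition of 50% or more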;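 note: controls were vehicle for no effect and minimum signal wells for full effect; inactives centre near -20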
Arbovirus inh: blocks arbovirus infection. arbovirus infection cell-based antiviral screen. inhibition, % at 10 µM. 0.37% of 200,000 active. AID 1251;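 active = inhibition from about 30%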;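 note: bluetongue infection of BSR cells; cell survival read as ATP light after 72 h; 0% = infected wells without compound and 100% = uninfected wells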
Mtb H37Rv: M. tuberculosis H37Rv growth inhibitors, H37Rv strain (AID 1626). inhibition, % at 10 µM, or IC50 in µM where a hit was titrated. 0.95% of 220,000 active. M. tuberculosis H37Rv growth inhibition; higher % means a stronger effect;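 active = confirmed in a dose series; inconclusive = inhibition above 80% but not taken into the dose series; inactive = below 80% or under 30% at every dose of the series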;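 note: bacteria incubated seven days before Alamar blue readout; 0% = bacteria only wells and 100% = bacteria with antibiotic wells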
Arbovirus inh repeat: further read-out of Arbovirus inh, marked with its call; inhibition, %; measured here: 10K subset replicate screen; many hits read low in the repeat;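 first of two repeat runs on a subset; 0% = infected and 100% = uninfected wells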
* hit, by the source's call; u = inconclusive; x = not tested or not shown.

SMILES	RecA splice inh	Mtb betalactam	YopH PTP inh	Arbovirus inh	Mtb H37Rv	others
OCCN=C1CCCc2c1[nH]c1ccc(Cl)cc21	-0.4	26.8	x	x	-4.6%
CNc1nc(N/N=C/c2cc3c(cc2[N+](=O)[O-])OCO3)nc(Nc2ccccc2)n1	-5.4	35.1	x	-27.9	3.1%
CCOc1ccc(Nc2ncnc3c2nnn3Cc2ccccc2)cc1	1.6	6.9	x	x	x
CC(C)N(CCNC(=O)c1ccc(NC2=NC3CS(=O)(=O)CC3S2)cc1)Cc1ccco1 (stereo not drawn)	-2.6	5.9	x	x	x
O=C1CCCCC1S(=O)(=O)c1ccccc1 (stereo not drawn)	-2.6	0.5	-29.0	-2.3	3.6%
Cc1cc(O)c(-c2n[nH]c3c2C(c2cccc(O)c2)N(Cc2cccnc2)C3=O)cc1Cl (stereo not drawn)	5.8	-13.5	-30.6	21.4	-2.3%
Cc1ccccc1NC(=O)c1ccno1	-0.4	1.1	x	x	x
O=c1c2ccccc2n(Cc2ccc(F)cc2)c(=O)n1C1CCCC1	16.6	3.0	-21.4	-6.0	11.4%
O=C(CCc1ccccc1)Nc1ccc(N2CCOCC2)cc1	0.5	6.3	-8.7	-8.6	-1.1%
CC(C)CCN1CCN(Cc2ccc(N3CCNC3=O)cc2)CC1CCO (stereo not drawn)	1.0	-2.0	x	2.7	-7.7%
O=c1cc(-c2ccc(Cl)cc2)oc(=O)[nH]1	0.3	-13.4	x	x	x
O=C(O)CCc1ccc(-c2cccs2)n1CCC(=O)O	-3.2	1.1	-38.4	14.3	-0.2%
O=C(CCCC(=O)OCC(Cl)=C(Cl)Cl)Nc1ccccc1	3.0	-0.3	16.1	-6.0	-1.2%
CSc1nnc(CNS(=O)(=O)c2ccc(Br)cc2)n1C	0.1	1.0	x	x	x
Nc1nc2ccccc2n1CCOc1ccc(Br)cc1	7.0	66.0	x	x	x
CCCN(C1CCS(=O)(=O)C1)S(=O)(=O)c1ccc(F)cc1 (stereo not drawn)	-1.4	-3.9	x	x	x
CCNC(=O)NC(=O)C(C)OC(=O)CNS(=O)(=O)c1c(Cl)cc(Br)cc1Cl (stereo not drawn)	1.6	0.9	x	5.6	-10.3%
Nc1ccccc1Oc1ncc(C(F)(F)F)cc1Cl	-0.1	-8.2	-34.7	-4.9	-3.0%
Cc1cc(C)n(CCN(C)C(=O)c2cc(COc3c(F)cccc3F)on2)n1	1.4	1.7	x	-0.6	-1.1%
CC(Sc1ccccc1)C(=O)NN=C1CCCCCC1 (stereo not drawn)	-0.3	-2.5	x	0.2	-0.6%
Cc1cccc(N2C(=O)SC(N(CC(=O)O)c3cccc(C)c3)C2=O)c1 (stereo not drawn)	0.5	2.6	x	6.1	-6.7%	Arbovirus inh repeat=3.0
Cc1ccc(CNC(=O)c2ccc3c(=O)n(CCCN4CCCC4=O)c(=S)[nH]c3c2)cc1	1.4	-6.6	-2.9	-15.0	-2.1%
CNC(=O)COC(=O)/C=C/c1cccs1	-3.8	-9.5	x	2.5	-5.9%
COc1ccc(OCc2ccc(C(=O)N3CCOCC3)cc2)cc1	x	-2.1	-31.9	-3.5	-2.4%
NC(=O)CN1CCN(c2ccccc2F)CC1	x	8.8	0.4	-1.5	18.4%

Gathered by group, the compounds so far containing two or more sulfur atoms (three)
SMILES	RecA splice inh	Mtb betalactam	YopH PTP inh	Arbovirus inh	Mtb H37Rv	others
CC(C)N(CCNC(=O)c1ccc(NC2=NC3CS(=O)(=O)CC3S2)cc1)Cc1ccco1 (stereo not drawn)	-2.6	5.9	x	x	x
CSc1nnc(CNS(=O)(=O)c2ccc(Br)cc2)n1C	0.1	1.0	x	x	x
CCCN(C1CCS(=O)(=O)C1)S(=O)(=O)c1ccc(F)cc1 (stereo not drawn)	-1.4	-3.9	x	x	x

Later entries
SMILES	RecA splice inh	Mtb betalactam	YopH PTP inh	Arbovirus inh	Mtb H37Rv	others
CCCCCN(C(=O)CCC(=O)OCc1ccccc1Cl)c1c(N)n(CCCC)c(=O)[nH]c1=O	0.2	2.7	x	x	x
O=C(Cc1noc2ccccc12)Nc1ccccn1	-1.2	1.6	-42.0	7.7	1.8%
C=CCNC(=O)CN(c1ccc(F)cc1)S(=O)(=O)c1ccc(OC)cc1	x	6.7	-15.7	-2.4	-6.6%
CCOc1ccc2nc(C(C)O)[nH]c2c1 (stereo not drawn)	0.9	-0.6	17.2	10.1	-9.7%
CCOC(=O)Cc1c(C)nc2c(-c3cccc(Br)c3)c[nH]n2c1=O	-0.4	97.7	-10.0	-26.9	u
CCOC(=O)CNc1nc(Cl)nc(NC(C)(C)C)n1	2.0	-10.4	x	5.7	-3.3%
CCOc1ccc(N(CC(=O)NCc2ccc(Cl)cc2)S(=O)(=O)c2c(C)noc2C)cc1	-2.1	0.4	x	x	x
Cn1ncc2c(Nc3ccccc3Cl)nc(Cl)nc21	1.2	0.9	x	x	-4.8%
CN(C)c1ccc(NC(=O)C2CCCN(S(=O)(=O)c3ccccc3)C2)cc1 (stereo not drawn)	-3.3	7.8	x	-7.5	10.9%
Cc1[nH]nc(SCC(=O)N2CCOCC2)c1[N+](=O)[O-]	4.7	-5.3	x	7.4	-0.8%
Cc1nc2ccccc2[nH]c1=O	0.2	0.5	x	x	-1.5%
CSc1ccc(C(=O)C2CCCN(C(=O)c3ccsc3)C2)cc1 (stereo not drawn)	0.5	-2.2	x	11.1	0.5%
CCC(=O)N1CCN(c2ccc(NC(=O)c3ccc(Br)o3)cc2)CC1	-0.5	7.7	0.9	3.8	5.5%
O=C(Nc1ccc(S(=O)(=O)Nc2ncccn2)cc1)c1cccc(S(=O)(=O)N2CCOCC2)c1	-0.3	-3.6	x	x	-2.1%
CC(=O)Nc1ccc(S(=O)(=O)NNC(=O)c2cccc(Cl)c2)cc1	-2.2	6.8	x	12.0	1.0%
COC(=O)CCC(NC(=O)c1cc(-c2ccc3c(c2)OCCO3)oc1C)C(=O)OC (stereo not drawn)	0.0	-8.8	-41.1	1.6	-8.2%
Cn1c2ccccc2n2c(=O)c(=O)n(CC(=O)c3ccc(Cl)cc3)nc12	-3.3	5.4	-33.0	3.2	-13.5%
CCOc1cc2c(cc1OCC)-n1cccc1C(c1c(O)cccc1OC)NC2 (stereo not drawn)	1.3	5.2	x	x	x
S=C(NC1CCCCC1)N1CCOCC1	-1.8	-6.5	x	x	-0.2%
COCC(=O)N(Cc1cc2ccc(C)cc2[nH]c1=O)c1cccc(C)c1	-1.3	-5.2	x	x	x
CCC(=O)N1c2ccc(S(=O)(=O)CCC(=O)NCc3ccc4c(c3)OCO4)cc2CC1C (stereo not drawn)	0.8	-6.6	-50.7	-6.5	x
C/C=C(\C)CN1CCC(n2nccc2NC(=O)c2ccc3c(c2)OCO3)CC1	-3.3	u	x	x	x
NC(=O)Cn1nc([N+](=O)[O-])nc1Oc1ccc(Br)cc1	1.0	-2.5	x	-4.0	-0.7%
CCOC(=O)C1=C(C)N(c2ccc(OCC)cc2)C(=O)/C1=C\c1ccco1	-0.9	2.5	x	-3.9	-0.8%
N#CCCN(C(=O)COC(=O)c1cccc(S(=O)(=O)N2CCCC2)c1)c1ccc(F)cc1	1.0	-3.3	x	x	x

4 compounds already listed, arranged by length of the SMILES, falling:
SMILES	RecA splice inh	Mtb betalactam	YopH PTP inh	Arbovirus inh	Mtb H37Rv	others
CCCCCN(C(=O)CCC(=O)OCc1ccccc1Cl)c1c(N)n(CCCC)c(=O)[nH]c1=O	0.2	2.7	x	x	x
N#CCCN(C(=O)COC(=O)c1cccc(S(=O)(=O)N2CCCC2)c1)c1ccc(F)cc1	1.0	-3.3	x	x	x
NC(=O)Cn1nc([N+](=O)[O-])nc1Oc1ccc(Br)cc1	1.0	-2.5	x	-4.0	-0.7%
CCOC(=O)CNc1nc(Cl)nc(NC(C)(C)C)n1	2.0	-10.4	x	5.7	-3.3%

Additional results:
SMILES	RecA splice inh	Mtb betalactam	YopH PTP inh	Arbovirus inh	Mtb H37Rv	others
CCCCC(O)(c1ccc(CC)cc1)C(CN1CCOCC1)c1ccccc1 (stereo not drawn)	13.0	17.1	x	x	x
O=C(NCc1ccc(Cl)cc1)N1CCN(Cc2ccccc2)CC1	0.3	-1.4	x	x	x
COc1ccc(C2C(C(=O)/C=C/c3ccco3)=C(O)C(=O)N2CCN2CCOCC2)cc1OC (stereo not drawn)	-3.2	-2.4	x	6.1	0.6%
COc1ccc(/C=C(/NC(=O)c2ccccc2)C(=O)NCCN2CCOCC2)cc1OC	1.9	-14.6	x	x	x
O=C(CCC(=O)OCc1ccc(Cl)cc1)Nc1ccccc1	0.8	10.9	x	-0.2	0.1%
Cc1cc(N2CCCC2=O)ccc1S(=O)(=O)NCCOc1ccccc1	0.9	2.4	x	-0.1	-1.6%
CC12CN3CCN(CC(C3)/C1=N/N=C/c1cccc([N+](=O)[O-])c1)C2	-1.7	-4.9	x	x	-4.2%
CC(Nc1n[nH]c(=O)[nH]c1=O)C(=O)N/N=C/c1ccccc1 (stereo not drawn)	-3.4	-4.7	x	x	-0.8%
CC(C)(C)C(=O)OCC1OC(n2cnc(C(N)=O)n2)C(O)C1O (stereo not drawn)	-3.3	-2.0	0.7	2.8	-19.8%
O=C(NCC(c1ccco1)N1CCc2ccccc21)c1ccccc1 (stereo not drawn)	2.1	2.1	x	x	x
O=C(NCc1ccccc1Cl)/C(=C\c1cccnc1)NC(=O)c1ccccc1	2.0	-2.3	x	x	x
CN(C(=O)c1cc2nc(-c3ccco3)cc(C(F)(F)F)n2n1)C1CCCCC1	-17.2	6.6	-33.8	-0.4	-2.6%
CCO[C@@H]1OC(C(N)=O)=C[C@H](c2ccc3c(c2)OCO3)[C@H]1CCCO	-4.4	-3.6	x	0.9	-9.2%
Cc1cc(N2CCN(C(=O)c3ccco3)CC2)c2ccccc2n1	-4.7	-9.1	x	x	-9.5%
Cc1ccccc1C(=O)N1CCc2c([nH]c3ccccc23)C1C(F)(F)F (stereo not drawn)	10.3	-1.4	x	x	0.0%
CCCn1nc(C(=O)Nc2nnc(CC)s2)c2ccccc2c1=O	3.0	6.3	x	5.6	-9.0%
CN1/C(=C\C(=O)c2cccnc2)C(C)(C)c2ccccc21	-10.4	-7.1	-5.7	-16.7	-3.4%
CC(NC(=O)Cc1ccccc1[N+](=O)[O-])c1ccccc1 (stereo not drawn)	1.2	-3.3	-19.5	6.4	2.3%
O=C1CCCN1c1ccc(S(=O)(=O)Oc2ccc(Cl)cc2)cc1[N+](=O)[O-]	2.5	-8.2	-19.6	12.1	1.4%
CN(CCOc1ccccc1)C(=O)c1ccc(F)c(S(=O)(=O)N2CCOCC2)c1	1.4	-0.9	x	x	x
Cc1cc(C)c(NC(=O)CSc2nnc(-c3ccncc3)n2Cc2ccco2)c(C)c1	-2.4	-6.7	4.6	3.3	-7.9%
CC(C)OCCCN1CN(S(=O)(=O)c2ccccc2)c2nc3ccccc3nc21	-1.5	1.1	-17.3	4.7	-4.2%
CC(=O)c1sc2nc(CSc3nnnn3-c3ccccc3)[nH]c(=O)c2c1C	3.5	19.5	x	18.6	3.3%
CCN(Cc1nc(-c2ccccc2)no1)C(=O)c1ccco1	1.1	-12.9	x	x	x
CCOC(=O)N1CCN(C(C)C(=O)c2c[nH]c3ccccc23)CC1 (stereo not drawn)	-2.2	-6.7	-45.8	9.0	-6.4%
Next compounds follow:
SMILES	RecA splice inh	Mtb betalactam	YopH PTP inh	Arbovirus inh	Mtb H37Rv	others
O=C(c1ccc(Br)o1)N1CCN(CCc2ccncc2)CC1	-0.4	-1.3	x	x	x
CC1=CCC(COC(=O)Nc2ccccc2)CC1 (stereo not drawn)	3.9	-4.2	9.3	-17.1	-1.2%
C/C(=N/NC(=O)c1ccc(Br)o1)c1ccncc1	-2.0	-6.1	-36.4	-3.4	-1.1%
O=C(O)C(Cc1ccccc1)n1c(=S)[nH]c2ccccc2c1=O (stereo not drawn)	1.3	10.9	x	6.0	11.6%
O=C(NCCC(=O)N1CCCCC1)c1ccccc1Cl	-0.5	u	x	x	x
Oc1ccccc1/C=N/NC(=S)NC1CC2CC1C1C=CCC21 (stereo not drawn)	14.7	97.6	x	x	u
CCN(CC)C(=O)c1cccc(NC(=O)CC23CC4CC(CC(C4)C2)C3)c1	4.0	-2.4	x	x	x
CC(C)OC(=O)/C(C#N)=C/c1c[nH]c2ccccc12	-0.5	13.4	-16.0	0.8	10.1%
CC(=O)N1CCc2cc(S(=O)(=O)NCCCN3CCC(C)CC3)ccc21	-3.7	-2.5	x	x	x
CCOc1ccc(N2C(=O)C3CCCN3C2=O)cc1 (stereo not drawn)	-0.3	-7.4	6.5	3.8	-4.9%
Cc1ccc2c(c1)cc(CN(Cc1cccs1)C(=O)c1ccco1)c1nnnn12	0.0	-11.9	-8.6	3.8	1.5%
O=C(CSCc1ccc(Cl)cc1)N/N=C/c1ccco1	2.3	37.5	x	2.5	38.4%
CCn1c(Cn2nnc(-c3ccccc3)n2)nnc1SCC(=O)Nc1ccc(C(C)=O)cc1	4.6	10.0	-23.8	8.8	-8.1%

Some of the compounds tested; count on the stated rates, not on these rows.
